Screening data: PubChem BioAssay, National Center for Advancing Translational Sciences (NCATS)
Vaccinia mCherry: qHTS for Stage-Specific Inhibitors of Vaccinia Orthopoxvirus: mCherry Reporter Primary qHTS. AID 720579, 2013. Vaccinia virus mCherry reporter infection, fluorescence; about a quarter of the inactives have no number. Potency, µM (titrated, usually from 36.5 µM), inactives show top-dose activity change, negative = inhibition, usual class: inhibitors. hit rate 0.63% among 310,000; active = well fitted inhibition curve with a large enough effect; inconclusive = small, poorly fitted or top-dose-only effect; inactive = no such curve, though single readings can be large or run the other way; tested in A549 cells; also: nearly all actives have a fitted effect of over 35% in size; inactives centre near -10
Vaccinia Venus: qHTS for Stage-Specific Inhibitors of Vaccinia Orthopoxvirus: Venus Reporter Primary qHTS; Vaccinia virus Venus reporter expression, fluorescence; hit rate 0.46% among 330,000; Potency, µM (titrated, usually from 36.5 µM), without a hit: at the top dose activity change, negative = inhibition, actives largely listed as inhibitors; AID 720580, 2013; active means well fitted inhibition curve with a large enough effect; inconclusive means small, poorly fitted or top-dose-only effect; inactive means no such curve, though single readings can be large or run the other way; tested in A549 cells; also: nearly all actives have a fitted effect of over 30% in size; inactives centre near -10
* = called active by the depositor; i = inactive; ? = inconclusive; · = no result given; [ ] = dose if it differs, or a comment. % is scaled to controls: 0 for no effect and ±100 for the full control effect; potency is read from the fitted curve at half-maximal effect.

No.	canonical_smiles	Vaccinia Venus	Vaccinia mCherry
1	C[C@]12CCC3c4ccc(O)cc4CCC3C1CC/C2=N\N (some centres undefined)	-2%	?
2	CC(C)NC(=O)C1(C)CN(S(C)(=O)=O)CC(=O)N1Cc1ccc2c(c1)OCO2 (centres undefined)	21%	-12%
3	Cc1csc(SCC(=O)Nc2cc(S(=O)(=O)N(C)C)ccc2C)n1	0%	-26%
4	CN1OC[C@@H]2COc3ccc4ccccc4c3[C@@H]21	-9%	i
5	CCOC(=O)C1=C(C)Nc2ccccc2N=C1NC(=O)C1CCN(C(=O)c2ccccc2C)CC1	15%	-19%
6	COc1ccc(NC(=S)NCc2cccnc2)cc1	5%	-15%
7	CCCNC(=O)CN1C(=O)c2ccccc2Sc2ncccc21	0%	-12%
8	Cc1cccc(N=Cc2c(O)n(-c3ccccc3C)c(=O)[nH]c2=O)c1	-14%	-17%
9	CC(C)(C)NC(=O)/C(=C\c1ccc(Br)cc1)NC(=O)c1cccs1	15%	·
10	Cc1ccc2c(CC(=O)NCC(=O)Nc3c(C)cccc3C)coc2c1	-8%	i
11	Cc1cccc(NCCC#N)c1	-5%	-18%
12	N#CCC(CNc1ncc(C(F)(F)F)cc1Cl)OC(=O)c1cccc([N+](=O)[O-])c1 (centres undefined)	?	?
13	COCCCNC(=O)Cn1nnc(-c2ccccc2NC(=O)c2ccccc2F)n1	-17%	-10%
14	S=c1[nH]nc(-c2ccco2)n1-c1cccc2ccccc12	-7%	-16%
15	COC(=O)c1ccc([C@@H]2C[C@H]3CN(Cc4cccnc4)C(=O)[C@]34CCCN24)cc1	-5%	-7%
16	Cc1cccc2nc(-c3ccco3)oc(=O)c12	-6%	i
17	CCOc1cc(CNc2ccc(N3CCCCC3)cc2)cc(Br)c1OCC(=O)NC(C)(C)C	5%	-8%
18	CCc1nnc(NC(=O)CSc2nc3cccnc3n2C2CCCCC2)s1	-10%	-20%
19	CCN(CC)c1ccc2c(c1)oc(=O)c1c(Cl)cc(=O)oc12	-19%	-14%
20	CCc1ccc(NC(=O)CSc2nc3c([nH]c4ccccc43)c(=O)n2C)cc1	-22%	-15%
21	CCc1ccc(/C=C(\Cl)c2nc3cc(Cl)ccc3c(=O)[nH]2)cc1	-9%	i
22	CC(C)Cn1c(N)c(/C=N/NC(=O)c2ccc(Cl)cc2)c(=O)n(C)c1=O	-4%	-4%
23	c1cc(-c2ccc(N3CCOCC3)cc2)n2ccnc2c1	-18%	10%
24	CC1CCN(c2ccc3nnc(CCC(=O)Nc4ccc(F)cc4)n3n2)CC1	-22%	-20%
25	CNc1ccc(/C=C(\C#N)c2ccccn2)cc1[N+](=O)[O-]	3%	-14%
26	Cc1ccccc1S(=O)(=O)N1CCN(c2ccc3c(c2)C2CC3CCN2C(=O)OCc2ccccc2)CC1 (centres undefined)	-11%	i
27	Cc1ccc(C)c(N2CCN(C3(c4ccccc4)C(=O)c4ccccc4C3=O)CC2)c1	-10%	-15%
28	COc1ccc(CC(=O)OCc2cc(=O)n3cc(Br)ccc3n2)cc1OC	-3%	-4%
29	CCn1c(CSc2nc3ccccc3s2)nnc1SCC(=O)c1ccc(O)cc1O	-6%	-16%
30	Cn1nnnc1SCC(=O)c1ccc(Br)s1	-17%	·
31	CC(C)(C)NC(=O)C1c2ccccc2OCC(=O)N1CC(F)(F)F (centres undefined)	-3%	7%
32	C[N+]1(C)CC2([N+](=O)[O-])CC=C(Oc3ccccc3)C([N+](=O)[O-])(C2)C1 (centres undefined)	0%	-11%
33	Cn1c(=O)c2c(nc(SCCN3CCCCC3)n2C)n(C)c1=O	-10%	-22%
34	CCS(=O)(=O)c1nc(S(=O)(=O)c2ccc(C)cc2)c(N2CCN(CCO)CC2)s1	-5%[7.34 µM]	-3%[7.34 µM]
35	C=CCOc1ccccc1C1C2=C(CC(C)(C)CC2=O)Nc2c1c(=O)n(C)c(=O)n2C (centres undefined)	-11%	i
36	CCCCN(C(=O)c1cc(S(=O)(=O)N2CCCCC2)ccc1Cl)c1c(N)n(CCC)c(=O)[nH]c1=O	-14%	-11%
37	CCOC(=O)c1c(NC(=O)CSc2cn(CCNC(=O)c3ccccc3OC)c3ccccc23)sc2c1CCC2	-13%	-20%
38	Cc1ccc(NC(=O)c2sc3nc(-c4ccncc4)ccc3c2N)cc1	33%[activator]	-16%
39	CC1CCN(S(=O)(=O)N2CCC(C(=O)NCc3cccs3)CC2)CC1	-17%	-22%
40	C/C=C/C(=O)Nc1nnc(-c2ccccc2C)s1	-25%	-14%
41	COc1ccc(-c2cc(C(F)(F)F)n3nc(C(=O)N4CCOCC4)nc3n2)cc1	-15%	-8%
42	Cc1ccc(NC(=O)c2sc3ncn(CC(=O)N4CCN(c5ccccn5)CC4)c(=O)c3c2C)cc1	-16%	i
43	CCCCOC(=O)/C=C/c1ccc(OC(=O)OC)c(OC(=O)OC)c1	-19%	-24%
44	Cc1ccc(-c2c3c(=O)n(C)c(=O)n(C)c3cn2N2CCOCC2)cc1	-23%	·
45	O=C(Nc1nncs1)C1CC(=O)N(CCc2ccc(F)cc2)C1 (centres undefined)	0%	-1%
46	CC1CCCC(NC(=O)C2c3ccccc3C(=O)N2Cc2cccs2)C1C (centres undefined)	-10%	-11%
47	Cc1ccc(OCC(=O)Nc2ccc(S(=O)(=O)Nc3onc(C)c3C)cc2)cc1	-14%	-4%
48	Cc1ccc(OCCCC(=O)Nc2ccc(S(=O)(=O)Nc3cc(C)nc(C)n3)cc2)cc1	-11%	i
49	Cc1cc(C)n(C(=O)/C(C#N)=N/Nc2cc(Cl)cc(Cl)c2)n1	?	?
50	COc1ccc(-c2ccc3nnc(SCC(=O)Nc4ccc(NC(C)=O)cc4)n3n2)cc1	-17%	i

(more compounds)
No.	canonical_smiles	Vaccinia Venus	Vaccinia mCherry
51	Clc1ccc2c(c1)nc1n2CCCC1	-13%	-4%
52	CC(Oc1cccc(Cl)c1)C(=O)Nc1cc(Cl)ccc1N1CCOCC1 (centres undefined)	-2%	-15%
53	CCC1(c2ccc(F)cc2)NC(=O)N(CC(=O)Nc2ccccc2C)C1=O (centres undefined)	-4%	-19%
54	C[C@H](CO)N1C[C@H](C)[C@@H](CN(C)Cc2ccc(Cl)c(Cl)c2)OCCCC[C@H](C)Oc2ccc(NC(=O)CCC(F)(F)F)cc2C1=O	?	?
55	OCCN1CCN(C(=S)Nc2cccc(C(F)(F)F)c2)CC1	-8%	-6%[7.34 µM]
56	O=C(Cn1cccc1C(=O)c1ccccc1)NCCC1=CCCCC1	4%	-10%
57	CCOc1ccc(S(=O)(=O)N2CCOCC2)cc1NC(=O)CSCC(=O)Nc1ccc(C)cc1	-17%	i
58	C#Cc1ccc(C(=O)Nc2ccc(N3CCC(C)CC3)c(C(N)=O)c2)cc1	-9%	11%
59	CCn1c(SCC(=O)Nc2cc3oc4ccccc4c3cc2OC)nnc1-c1cccs1	-20%	-8%
60	CCOc1ccc(OCCC(=O)Nc2ccc(N3CCOCC3)cc2N2CCOCC2)cc1	-13%	-6%
61	COc1ccc(-c2cc(C(F)(F)F)nc(SCC(=O)N3CCCCC3)n2)cc1	2%	-7%
62	CCc1ccc(OCCCn2c(CCNC(=O)C3CCCCC3)nc3ccccc32)cc1	-14%	9%
63	COc1cccc(N2CCN(C(=O)c3cnn(C(C)(C)C)c3C3CCN(C(=O)OC(C)(C)C)CC3)CC2)c1	-17%	-15%
64	CN(C)S(=O)(=O)c1cc(NC(=O)COC(=O)Cc2cccc3ccccc23)ccc1Cl	-18%	-5%
65	CC(C)Nc1nc(SC(C)C(=O)Nc2ccccc2)nc(N(C)C)n1 (centres undefined)	-6%	-12%
66	COc1ccc(N2CCN(S(=O)(=O)CCNC(=O)/C=C/c3ccccc3)CC2)cc1	-3%	-6%
67	COc1ccc(OC)c(CNC(=O)C2COc3ccccc3C2)c1 (centres undefined)	-3%	-2%
68	C[C@@H]1CN([C@@H](C)CO)C(=O)c2cc(NS(C)(=O)=O)ccc2O[C@@H]1CN(C)S(=O)(=O)c1ccccc1	-20%	-14%
69	O=C(CC(c1ccccc1)c1cc(Cl)ccc1O)NCCCN1CCOCC1 (centres undefined)	-22%	-21%
70	CCn1ccc2cc(S(=O)(=O)N3CCCN(C(=O)Nc4ccccc4F)CC3)ccc21	4%	-3%

Given as labelled records: 2 of the compounds above
#3 Cc1csc(SCC(=O)Nc2cc(S(=O)(=O)N(C)C)ccc2C)n1
- Vaccinia Venus: 0%
- Vaccinia mCherry: -26%
#4 CN1OC[C@@H]2COc3ccc4ccccc4c3[C@@H]21
- Vaccinia Venus: -9%
- Vaccinia mCherry: i

(list continues)
No.	canonical_smiles	Vaccinia Venus	Vaccinia mCherry
71	C=C(C)[C@H]1CC=C(C)/C(=N/NC(=O)CNc2ccccc2OC)C1	-7%	i
72	O=C1OCCC1Sc1nc(-c2ccccc2)cs1 (centres undefined)	?	·
73	N#Cc1c(Nc2ccccc2)sc(C(=O)c2ccc(F)cc2)c1N	-20%	-25%
74	O=C(c1ccco1)N1CCN(c2ncnc3scc(-c4ccccc4)c23)CC1	-18%	-8%
75	CCCCN(C=O)c1c(CC)nc2ccc(C(=O)N3CCCCC3)cn12	-2%	i
76	CCC(C(=O)NCCC(C)C)N(Cc1ccccc1Cl)C(=O)c1snc(C(N)=O)c1N (centres undefined)	-27%	-2%
77	O=C(CSCc1ccc(F)cc1)NCc1ccco1	-1%	i
78	COc1ccc(N2Cc3cccc(C(=O)Nc4ccc(C)c(C)c4)c3C2=O)cc1	-17%	-21%
79	CCOc1ccc(C(C)=O)cc1N1C(=O)C2C3C=CC(C3=C(C)C)C2C1=O (centres undefined)	-19%	-24%
80	O=S(=O)(c1ccc(F)cc1)N1CCN(S(=O)(=O)c2cccs2)CC1	2%	-6%

2 entries from above, in transposed form:
77. O=C(CSCc1ccc(F)cc1)NCc1ccco1
73. N#Cc1c(Nc2ccccc2)sc(C(=O)c2ccc(F)cc2)c1N
Screen / compound no. | 77 | 73
Vaccinia Venus | -1% | -20%
Vaccinia mCherry | i | -25%

(list continues)
No.	canonical_smiles	Vaccinia Venus	Vaccinia mCherry
81	O=C(O)CSCC(=O)N1CCc2c([nH]c3ccccc23)C1C(F)(F)F (centres undefined)	-2%	i
82	CCN(C(=O)COC(=O)c1cc(C)n(-c2ccc(F)cc2)c1C)C1CCS(=O)(=O)C1 (centres undefined)	-8%	·
83	CCOc1ccc(-c2nnc(SCC(=O)O)n2Cc2ccccc2)cc1	-13%	-6%
84	CN1CCC2(CC1)C(C#N)=C(N)NC(S)=C2C#N	19%	i
85	CCCNC(=O)CCn1cc(-c2ccc(OC)cc2)nc1-c1ccncc1	-4%	-30%
86	CCN(CC(=O)Nc1ccc(OC)cc1)C(=O)Cc1ccsc1	-13%	-8%
87	COC(=O)c1c(C)oc2ccc(N(C(=O)c3ccncc3)S(=O)(=O)c3c(C)cc(C)cc3C)cc12	-21%[7.34 µM]	-25%[7.34 µM]
88	O=C(NNC(=O)C12CC3CC(CC(C3)C1)C2)c1csc(N2CCOCC2)n1	-26%	i
89	Cc1ccc(S(=O)(=O)N2[C@@H](c3ccc(Br)cc3)C(C(=O)O)=CC[C@H]2c2ccc(Cl)cc2)cc1	-20%	-12%
90	C#CCSc1nc(=O)c2cccnc2n1-c1ccc(C)cc1	-10%	i
91	COc1ccc(NC(=O)C2(C)Cc3c(-c4cccc(NC(C)=O)c4)ccnc3O2)cn1 (centres undefined)	-28%	?
92	COc1ccc(S(=O)(=O)Nc2cccc(-c3ccc(N4CCCCCC4)nn3)c2)cc1	-7%	-18%
93	COc1ccc(-n2c(CN3CCN(Cc4ccccc4)CC3)nc3ccc([N+](=O)[O-])cc3c2=O)c(OC)c1	-12%	-9%
94	Cc1c(Cl)cccc1NC(=O)CNC(=O)c1ccc(F)cc1	-11%	i
95	CCCN1C(=O)CN(C2CCCCCC2)C(=O)C1c1ccc(OCC)c(OC)c1 (centres undefined)	-8%	-17%
96	CCCN(CCC)S(=O)(=O)c1ccc2c(c1)CCCN2C(C)=O	-11%	-14%
97	CC(C)CCNC(=O)c1c(CSc2ccc(Cl)cc2)noc1C(=O)NCc1ccccc1	-11%	i
98	COc1ccc(CNC(=O)c2ccc(CS(=O)Cc3cccc(Cl)c3)o2)cc1 (centres undefined)	-7%	i
99	O=C(NN1CCOCC1)c1ccc(Br)s1	6%	-2%
100	O=S(=O)(c1ccc(S(=O)(=O)N(Cc2ccc(F)cc2)C2CCCC2)cc1)N1CCCC1	-22%	·
101	Cc1cccc(NC(=O)c2c(NC(=O)c3ccco3)sc3c2CCC(C(C)(C)C)C3)c1 (centres undefined)	-8%	-17%
102	Cc1nn2c(=O)cc(COC(=O)c3ccc(F)cc3)nc2s1	-4%	-11%
103	O=C(NNC(=S)Nc1ccccc1C(F)(F)F)C1CC1	7%	-10%
104	COc1cc2ccccc2cc1C(=O)Nc1ccc2oc(-c3ccccc3)nc2c1	-5%	-22%
105	Cc1nc2sc(C(c3ccc(Cl)cc3)N3CCOCC3)c(O)n2n1 (centres undefined)	-13%	-17%
106	CCOc1ccc(C(=O)NCC(=O)NCC(c2ccccc2OC)N2CCCC2)cc1 (centres undefined)	-13%	-18%
107	Cc1ccc(-n2cnnn2)cc1S(N)(=O)=O	-7%	-8%
108	Cc1cc(NC(=O)CCC(=O)N(c2ccccc2)C(C(=O)NC(C)(C)C)c2ccccc2Cl)no1 (centres undefined)	-10%	-11%
109	O=C(O)CC(Cc1ccccc1)C(=O)NCC12CC3CC(CC(C3)C1)C2 (centres undefined)	-18%	i
